FGF22 binding: FGF22 (human) thermal shift binding; calls only at 9.99 µM; hit rate 1.5% among 340,000; recombinant FGF22 thermal shift, SYPRO orange fluorescence; percent of sucrose octasulfate shift, DMSO zero; Q9HCT0;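 active = melting point raised past a set limit in the mean and every replicate; three in four hits are not shown here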
Target sequence (Q9HCT0 whole entry, looked up): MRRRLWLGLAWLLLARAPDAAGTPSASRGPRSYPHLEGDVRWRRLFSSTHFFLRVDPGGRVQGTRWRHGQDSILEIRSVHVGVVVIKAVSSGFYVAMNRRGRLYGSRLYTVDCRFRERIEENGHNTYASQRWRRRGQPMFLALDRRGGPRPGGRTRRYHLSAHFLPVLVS
HNF4A DNA FP: change in binding of human HNF4 alpha to DNA; P41235; HNF4a-FITC DNA binding, fluorescence polarization, 1 h; activity change, % at 10 µM; hit rate 0.3% among 360,000; in the data active = activity change above about 30%, passing the limit was not always enough;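 also: controls were the assay level and a saturating level of protein; the project sought stronger binding though the title names inhibitors; some compounds called inactive have numbers as strong as hits; positive values seem to mean higher polarization but the record does not say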
Beta2AR agonist: agonists of human beta-2 adrenergic receptor inducing internalization | P07550 | Am2.2-beta2AR cells, FAP receptor internalization, flow cytometry; reference of the scale not given here | response, % (test concentration not listed) | hit rate 0.43% among 340,000;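 active = response above a set limit, near 3 SD of response in nonfluorescent compounds, cut at about 42% in these data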;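 also: stock transfer was 100 nL into about 11 µL; a reference agonist was the positive control; negative values mostly stem from fluorescent compounds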
Ecoli rRNA inh: inhibitors of bacterial rRNA selective over humanized ribosomes; E. coli WT GFP vs humanized-ribosome RFP mutants, fluorescence, 24 h; active compounds read low; DMSO median 0, no signal -100; GFP signal change (wild-type ribosome), % (concentration not given with the values); hit rate 1.6% among 350,000; AID 720706;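 active = significant combined selectivity score with lowered wild-type GFP, culture density cut under 30%, mutant RFP and density less affected; inactive = any of these conditions unmet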; also: one replicate is shown; some compounds called inactive have numbers as strong as hits
UCH37 DUB inh: inhibitors of human deubiquitinating enzyme UCH37; Q9Y5K5; purified proteasome/UCH37, Ub-AMC cleavage fluorescence; inhibition, % (no concentration beside the values); hit rate 0.33% among 330,000;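 active = mean of two replicates above 20%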;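 also: 0% = compound-free wells with enzyme and 100% = wells lacking proteasome; stock transfer was 100 nL into about 20 µL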
Target sequence (Q9Y5K5 whole entry, looked up): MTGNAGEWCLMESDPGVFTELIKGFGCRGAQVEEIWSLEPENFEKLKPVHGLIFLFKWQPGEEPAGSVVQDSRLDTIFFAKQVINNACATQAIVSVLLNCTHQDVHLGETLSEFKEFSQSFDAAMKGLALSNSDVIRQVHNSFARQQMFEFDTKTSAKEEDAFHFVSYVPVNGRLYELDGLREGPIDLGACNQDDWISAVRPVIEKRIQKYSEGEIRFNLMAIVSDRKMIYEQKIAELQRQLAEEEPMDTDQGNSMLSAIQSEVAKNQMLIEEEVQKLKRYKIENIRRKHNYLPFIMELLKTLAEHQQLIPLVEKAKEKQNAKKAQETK
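Material: Human UCH37 enzyme supplied as purified proteasome complex | Schedule: 30 min compound-proteasome preincubation then 25 min substrate reaction, room temperature | Detection: AMC fluorescence from Ub-AMC cleavage, excitation 355 nm, emission 460 nm | Benchmarks: Wells without proteasome as full block, compound-free enzyme plus substrate as uninhibited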
ALR inh: human ALR oxidase inhibition via reduced H2O2; inhibition, % (test concentration not listed); hit rate 3.8% among 290,000; purified ALR, DTT oxidation, H2O2 HRP-luminol luminescence;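 active = mean and each replicate at 75% or more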;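 also: stock transfer was 7.5 nL into about 7.5 µL; 0% = neutral wells and 100% = wells with inactivated enzyme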
Target sequence (P55789 whole entry, looked up): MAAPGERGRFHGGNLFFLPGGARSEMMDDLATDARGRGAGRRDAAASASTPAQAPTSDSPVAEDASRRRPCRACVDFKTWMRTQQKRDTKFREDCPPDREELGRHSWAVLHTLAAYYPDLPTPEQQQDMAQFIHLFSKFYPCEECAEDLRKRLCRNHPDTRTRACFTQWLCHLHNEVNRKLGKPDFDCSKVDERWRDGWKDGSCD
Ecoli growth: blocks Escherichia coli growth. OD600, 23 h; active compounds read low. OD600 absorbance (no concentration beside the values). AID 1053175. hit rate 0.21% among 330,000;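 active = OD600 absorbance below the run mean of sample wells minus 3.6 SD, in any replicate, cut at about 0.56 in these data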;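 also: stock transfer was 300 nL into about 60 µL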
Ecoli rRNA inh OD600: further read-out of Ecoli rRNA inh, marked with its call; OD600 change, %; measured here: OD600 growth;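 optical density of the mix in the first replicate; 0 = DMSO median and -100 = no signal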
Ecoli rRNA inh RFP: second read-out of Ecoli rRNA inh, no call of its own (marks repeat the call); RFP signal change, %; measured here: RFP humanized mutant strains;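 first replicate; 0 = DMSO median and -100 = no signal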
* marks the source's active call; other numbers are inactive results; i = inactive; · = no result given. This is a subset, so the mix of outcomes need not match the whole.

FGF22 binding	HNF4A DNA FP	SMILES	Beta2AR agonist	Ecoli rRNA inh	Ecoli rRNA inh OD600	Ecoli rRNA inh RFP	UCH37 DUB inh	ALR inh	Ecoli growth
i	-3.9	OC[C@H]1OC(O)[C@H](O)[C@@H](O)[C@H]1O (stereo partly drawn)	3	·	·	·	5.6	-3	·
i	1.1	CCN(C(=O)COC(=O)c1cc([N+](=O)[O-])ccc1N1CCOCC1)c1ccccc1	-1	·	·	·	6.7	·	0.7
i	-0.4	CCOC(=O)c1c(NC(C)=O)sc2c(OCCN(CC)CC)c(Br)ccc12	5	-29	-62	29	-12	-4	0.68
·	-1.9	CCn1c(COc2ccc(Cl)cc2)nnc1SCc1ccc(C#N)cc1	44*	·	·	·	2.4	-13	0.75
·	-2.9	COc1ccc(OCCCC(=O)Nc2nncs2)cc1	5	·	·	·	2.6	-6	0.71
i	-3.9	Cc1csc(C(=O)O)c1-c1c(C)csc1C(=O)O	-2	·	·	·	3.6	·	0.69
i	-2.3	NNC(=O)Cn1c2ccccc2c2ccccc21	-3	-5	9	9.2	3.6	-4	0.7
i	-0.9	O=C1C2=C(CCCC2)C(=O)N1c1cccc(OCCBr)c1	-15	-6	-1	-7.7	2.9	1	0.72
i	0.8	O=C(O)c1ccc(CNCc2ccc(Cl)cc2)cc1	-3	6	5	-3.0	1.5	2	0.7
i	-1.3	COc1ccc(OC)c(C(=O)NC(CC(N)=O)c2ccc(N3CCN(c4ccccc4)CC3)c([N+](=O)[O-])c2)c1 (stereo not drawn)	-4	-5	-4	-6.3	2.3	·	0.73
i	-3.8	Cc1cc(C)cc(-n2ncc3c2CCCC3NC(=O)CN2CCCC2=O)c1 (stereo not drawn)	6	-1	0	-0.7	3.6	-3	0.65
i	-0.2	Cc1cc(C)c2c(=O)n(CC(=O)Nc3cccc(F)c3)sc2n1	22	15	0	0.2	5.6	·	0.69
i	1.9	CN(C)c1ccc(-c2csc(C(O)(c3ccccc3)C(F)(F)F)n2)cc1 (stereo not drawn)	·	-48	-72	-18	·	·	·
·	2.0	Cc1cc(C(=O)CSc2nnc(N)s2)c(C)n1CCc1ccc(Cl)cc1	6	·	·	·	4.4	-15	0.74
·	-0.7	CC(=O)N1N=C(c2cccs2)CC1c1cccc([N+](=O)[O-])c1 (stereo not drawn)	-17	4	1	-0.2	2.2	·	0.66
i	-5.6	CC1CCCN(C(=O)c2ccc(Cl)c(S(=O)(=O)N3CCCCCC3)c2)C1 (stereo not drawn)	3	-29	-46	-3.6	4.5	-2	0.67
·	2.8	CCc1nnc(NC(=O)C=C(C)C)s1	3	·	·	·	-0.5	0	0.74
·	1.8	Cc1cc(C)nc(/N=C(\N)N(Cc2ccccc2)Cc2ccccc2)n1	10	-31	-47	26	·	-1	·
i	-3.4	Cc1cccc(-c2nc3ccccc3c(=O)n2NC(=O)c2cccnc2Cl)c1	-10	10	4	-0.8	2.8	-5	0.69
i	-1.0	O=C(Nc1nnc(C2=COCCO2)o1)C1CCCCC1	4	16	7	-3.2	5.2	-12	0.67
·	-2.2	Cc1nnc(NC(=O)CSc2nccn2C)s1	0	·	·	·	-1.0	-13	0.69
i	0.9	Cc1cccc(N(Cc2ccccc2)C(=O)c2ccccc2S(C)(=O)=O)c1	9	-3	-9	0.0	0.2	-17	0.68
i	-2.2	CC(C(=O)N(C)Cc1cccc(F)c1)N1CCN(S(=O)(=O)c2ccc3c(c2)OCCCO3)CC1 (stereo not drawn)	-1	-20	-23	-1.1	0.4	·	0.69
i	-3.8	Cc1ccc(/C=C2\CCCC3=C2NC(=S)NC3c2ccc(C)cc2)cc1 (stereo not drawn)	7	2	-5	16	2.9	9	0.65
i	3.2	CS(=O)(=O)Cc1ccc(C(=O)N(CCc2ccccc2)Cc2ccccc2)cc1	0	-4	-15	3.6	-0.1	-10	0.68
i	5.8	COc1ccc(CNC(=O)[C@H](C)NC(=O)C2CCN(C(=O)[C@@H](N)Cc3ccccc3)CC2)cc1	-5	·	·	·	2.6	-25	0.76
i	-0.6	COc1ccc(CCNC(=O)Cn2c(=O)n(-c3cc(F)ccc3F)c(=O)c3sccc32)cc1OC	-11	7	7	0.5	5.0	55	0.69
i	-2.3	CCOc1cc(C(=O)NC)cc(Br)c1OCc1ccccc1	3	-4	-7	-1.0	1.0	-7	0.7
i	2.8	CC(C)=CCN1CCN(Cc2cccnc2)CC1CCO (stereo not drawn)	1	14	14	3.3	-2.4	·	0.71
i	0.6	CCOc1cc(C(=O)NCc2ccc3c(c2)OCO3)cc(OCC)c1OCC	4	3	-3	-4.3	1.3	-1	0.66
i	5.4	Cc1cccc(NC(=O)CSCC(=O)N(C)Cc2c(F)cccc2Cl)c1	6	-16	-26	-1.0	1.1	-4	0.64
·	-3.1	CCOC(=O)C1=C(CP(=O)(c2ccccc2)c2ccccc2)NC(=O)NC1c1ccc(OC)cc1 (stereo not drawn)	9	·	·	·	-1.0	·	·
·	1.7	CCCCOC(=O)C(NC(=O)c1ccccc1)=C(C)C	6	·	·	·	0.4	-2	0.79
i	1.4	Cc1c(C(=O)N2CCC2)oc2ccc(Br)cc12	-12	6	8	-1.6	3.8	-4	0.69
i	-3.6	O=C1CC(N(O)c2ccccc2)C(=O)N1c1ccc(Cl)c(Cl)c1 (stereo not drawn)	10	0	-2	8.3	5.3	11	0.67
·	-5.2	COc1ccc(Br)cc1C(=O)N/N=C/c1ccc([N+](=O)[O-])cc1	8	8	11	-3.1	·	-6	·
i	-2.0	Cc1ccc(NC(=S)NN(C)c2cc(C)nc(C)n2)cc1	-3	5	-1	0.6	1.3	10	0.68
·	-0.6	CC(C)Sc1nc2c(c(=O)n(C)c(=O)n2C)n1Cc1ccc(Cl)cc1	4	·	·	·	-5.5	1	0.79
·	-2.5	COc1cccc(-n2nnc3c(=O)n(Cc4ccc(F)cc4)cnc32)c1	10	·	·	·	2.3	-5	0.71
·	-2.4	COc1ccc(C(=O)NCCc2nnc(SCC(=O)Nc3ccccc3)n2C)cc1	-1	·	·	·	2.0	-10	0.65
i	-0.1	COc1cc(OC)cc(C(=O)NNC(=O)CCC2CCCC2)c1	-2	4	1	1.1	0.2	-1	0.68
·	-2.2	Cc1ccccc1NC(=O)c1ccccc1NS(=O)(=O)c1cccc2cccnc12	2	·	·	·	0.3	-19	0.7
i	-1.3	Cc1ccc(S(=O)(=O)N(Cc2cccc(C(F)(F)F)c2)C(=O)N2CCN(C)CC2)cc1	-4	3	2	-2.6	3.4	-21	0.64
i	3.6	Cc1ccc(-c2cc(C(=O)Nc3cc(C)on3)c3ccccc3n2)cc1	-8	6	14	-0.5	-3.8	·	0.68
i	1.2	CCOC(=O)c1cn[nH]c1C(F)(F)F	-1	16	14	-1.8	0.8	-8	0.63
i	1.8	O=C(c1ccc(F)c(S(=O)(=O)N2CCOCC2)c1)N1CCN(c2ncccn2)CC1	-6	7	5	0.7	-2.0	0	0.7
·	2.6	Cn1c(=O)c2c(O)cc(=O)n(-c3ccccc3)c2n(C)c1=O	0	·	·	·	4.7	6	0.7
·	0.8	CCOC(=O)Cc1csc(NC(=O)CSc2nc(N)c3c(C)c(C)sc3n2)n1	-13	·	·	·	0.9	·	0.72
i	1.5	COc1ccc(Cl)cc1NC(=O)C/C(C)=N/NC(=O)COc1ccc(C)cc1	-3	6	12	-1.0	·	-4	·
i	-1.3	C=C(C)Cn1c(=O)c2c(nc3n2CCCN3CCc2ccccc2)n(C)c1=O	0	-4	-5	0.3	0.1	7	0.65
i	-3.6	Cc1ccc(NC(=O)c2cc(-c3ccccc3)nn2-c2ccccc2)c(Br)c1	7	18	22	-2.8	2.1	-10	0.73
i	0.1	COc1cc(OC)cc(C(=O)NNC(=O)CCOc2ccccc2OC)c1	4	6	7	-1.0	4.6	·	0.7
i	1.4	CCn1nc(C)c(CN2CCCC(CO)(Cc3ccccc3)C2)c1C (stereo not drawn)	-2	18	7	0.6	0.6	-16	0.71
·	8.1	COC(=O)c1cccc(C23CC4(C2)[C@H](CN(Cc2ccc(-c5ccccc5)cc2)[C@@H]4c2ccccc2)C3c2ccc(Cl)nc2)c1 (stereo partly drawn)	-2	·	·	·	-0.9	-5	·
i	-3.0	COc1cccc(CNC(=O)[C@H](CC(C)C)NC(=O)N2CCn3c2nc2ccccc23)c1	-12	9	11	0.9	2.9	-6	0.71
·	-0.1	CC(C)c1nnc(SCC(=O)NCc2ccc3c(c2)OCO3)n1C	4	·	·	·	3.8	·	0.72

Three structures out of the list, sorted by molecular weight, falling.
FGF22 binding	HNF4A DNA FP	SMILES	Beta2AR agonist	Ecoli rRNA inh	Ecoli rRNA inh OD600	Ecoli rRNA inh RFP	UCH37 DUB inh	ALR inh	Ecoli growth
i	-3.0	COc1cccc(CNC(=O)[C@H](CC(C)C)NC(=O)N2CCn3c2nc2ccccc23)c1	-12	9	11	0.9	2.9	-6	0.71
i	-3.6	Cc1ccc(NC(=O)c2cc(-c3ccccc3)nn2-c2ccccc2)c(Br)c1	7	18	22	-2.8	2.1	-10	0.73
i	0.1	COc1cc(OC)cc(C(=O)NNC(=O)CCOc2ccccc2OC)c1	4	6	7	-1.0	4.6	·	0.7

Next results follow:
FGF22 binding	HNF4A DNA FP	SMILES	Beta2AR agonist	Ecoli rRNA inh	Ecoli rRNA inh OD600	Ecoli rRNA inh RFP	UCH37 DUB inh	ALR inh	Ecoli growth
i	1.8	CCOC(=O)c1nc2sc(C)c(C)c2c(=O)[nH]1	2	4	3	2.2	i	-8	0.7
·	-1.9	CC(C)n1c(N2CCN(C(=O)N3CCCCC3)CC2)nc2ccccc21	-2	·	·	·	0.4	-1	0.71
·	-8.5	COCCN1C=C2C(=O)C(C)(OC(=O)CCC(=O)OC)C(=O)C=C2C=C1C1CC1 (stereo not drawn)	-6	·	·	·	5.9	2	0.65
i	-3.1	Cc1c(/C=N/O)sc2ccccc12	4	-6	5	-0.2	·	18	·
i	4.8	CC(=O)Nc1ccc(NS(=O)(=O)c2ccc(Cl)s2)cc1	3	-20*	-12*	4.9*	3.0	-16	0.66
i	1.2	COc1ccc(NC(=S)N(CCc2c(C)[nH]c3ccccc23)Cc2cccnc2)cc1	1	2	2	-2.1	2.4	·	0.71
i	2.4	CCCOc1ccc(C2=CSC3=NCCN23)cc1	-11	3	3	-0.1	0.0	67	0.69

From PubChem BioAssay
